# Sa growth inh – S. aureus growth inhibition at 42 and 30 °C, primary screen, LtaS inhibitor project, RN4220, two temperatures | OD600, 20 h, 42 °C; stronger effect = lower value | relative growth, % (no concentration beside the values) | 0.53% of 170,000 active;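 active means growth at 42 °C up to 50% and 20 or more points under that at 30 °C, or under 10% at both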;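 further: 300 nL library stock went into each well; scaled to the means of positive and negative controls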
# HCMV NEC inh – inhibitors of HCMV UL50-UL53 interaction, biochemical, HTRF; HCMV UL50-UL53 nuclear egress complex (human cytomegalovirus); normalized percent inhibition; inhibition, % (concentration not given with the values); 0.15% of 190,000 active; AID 1918969, 2023;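 active means both replicates at 50% or more, plus weaker picks with an unusually low signal ratio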;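 further: stock transfer was 100 nL into about 20 µL; 0% = negative control wells and 100% = wells with untagged competitor protein; inactives centre near -12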
# GIV-Gai inh – inhibitors of GIV peptide binding to Galpha-i3, primary screen, biochemical, fluorescence polarization, FITC-GIV GBA peptide, rat Galphai3 | percent of control (FP), % (concentration not given with the values) | 0.42% of 210,000 active | Guanine nucleotide-binding protein G(i) subunit alpha-3 (Rattus norvegicus), P08753 | 90 min; stronger effect = lower value; scaled: aluminum fluoride 0%, vehicle 100%;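 active means replicate mean at 85% of control or lower, very high polarization wells dropped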;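 further: wells of about 15 µL received 100 nL stock; the first replicate is given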
# Target sequence (P08753 whole entry, looked up): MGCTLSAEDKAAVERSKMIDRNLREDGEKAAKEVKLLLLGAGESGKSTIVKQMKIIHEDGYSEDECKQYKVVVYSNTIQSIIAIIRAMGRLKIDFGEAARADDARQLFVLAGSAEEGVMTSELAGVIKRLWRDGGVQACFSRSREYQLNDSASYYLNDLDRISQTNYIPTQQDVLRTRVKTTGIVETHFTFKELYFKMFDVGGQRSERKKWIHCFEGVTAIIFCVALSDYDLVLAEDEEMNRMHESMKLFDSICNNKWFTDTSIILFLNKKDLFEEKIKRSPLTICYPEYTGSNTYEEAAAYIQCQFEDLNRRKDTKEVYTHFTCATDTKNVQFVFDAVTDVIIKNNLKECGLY
# Sa growth inh second temp – recorded beside Sa growth inh, whose call it bears; relative growth, %; measured here: growth at 30 °C;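 optical density after 20 h as mean of two plates; 100% = untreated growth and lower means inhibition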
# * = called active by the depositor; . = no result given; & = joins results of further samples. Not a hit list; overall some 0.83% were active at least once.
structure	Sa growth inh	Sa growth inh second temp	HCMV NEC inh	GIV-Gai inh
N#CC1(NC(=O)CSc2nnc(COc3ccccc3F)n2-c2ccccc2)CCCCC1	116	96	2	.
C=CCSc1nnc2c(n1)OC(C1CC=C(C)CC1)Nc1ccccc1-2 (stereo not given)	92	84	-32	109
CCCCC(Sc1ccc2nnc(-c3ccc(OC)c(OC)c3)n2n1)C(=O)O (stereo not given)	85	86	.	97
Cc1cc(C)n2nc(SC/C(O)=C(\C#N)c3nc4ccccc4[nH]3)nc2n1	103	85	-15	.
O=C(/C=C1\Sc2ccccc2NC1=O)NCCCN1CCC(Cc2ccccc2)CC1	88	55	.	100
OC(COc1ccccc1Cl)Cn1c(C2CC2)nc2ccccc21 (stereo not given)	.	.	-13	105
c1ccc(CN2CCN(Cc3ccccc3)C2c2ccc3c(c2)OCO3)cc1	72	95	-3	.
Cc1ccc2c(c1)-c1c(ssc1=S)C(C)(C)N2C(=O)CSc1n[nH]c(-c2ccccc2)n1	.	.	-10	106
CCn1nccc1C1CCCN1C(=O)c1c(Cl)cnn1C (stereo not given)	.	.	-24	104
CC(=O)Nc1ccc(-c2cn3ccc(C)nc3n2)cc1	.	.	-64	104
Cn1c(=O)sc2cc(NS(=O)(=O)c3ccc4c(c3)n(C)c(=O)n4C)ccc21	.	.	-17	104
CCN1C(=O)c2ccccc2S(=O)(=O)c2ccc(C(=O)N3CCCCC3)cc21	81	95	0	102
CNC(=O)c1c(NC(=O)c2cc(-c3ccc4c(c3)CC(C)O4)on2)sc2c1CCCC2 (stereo not given)	.	.	-18	98
CCCCSc1nnc2c(n1)OC(c1ccccn1)Nc1ccccc1-2 (stereo not given)	.	.	-27	110
CNC(=S)NC1CC2CCC1C2 (stereo not given)	88	83	-31	107
O=C(Nc1cccc(C(F)(F)F)c1)c1cccs1	107	84	-8	108
COc1ccc(-c2nc3c(s2)CN(S(=O)(=O)c2cccc4nsnc24)CC3)cc1OC	.	.	-40	101
COc1ccc2ccccc2c1CN1CCN(C(=O)c2ccco2)CC1	93	85	-38	98
CCOc1ccc(NC(=O)N(C)CCc2c(C)nn(C)c2C)cc1	101	93	4	106&99
O=C(NCC1CCCO1)C12CC3CC(CC(C3)C1)C2 (stereo not given)	69	85	0	104
Oc1cccc2c1NCCC2	90	5	-54	105
CCCCn1c(CN2CCOCC2)nc2ccccc21	88	84	-13	101
O=S(=O)(c1cccs1)c1cccs1	94	73	-10	99
O=C(O)CN1CCSC1=O	101	96	-4	.
Cc1ccc2cc3cc(C(=O)NC4CC4)oc3nc2c1	102	91	-38	100
CN(C)CCNC(=O)c1cc2n(n1)CCCN(Cc1cccc(F)c1)C2=O	.	.	-18	102
COC(=O)c1ccccc1OC(=O)c1ccncc1	107	99	-8	100
Cc1c2cnn(-c3ccccc3)c(=O)c2c(C)n1C(C)C(=O)Nc1ccc(Br)cc1F (stereo not given)	117	92	-8	105
CC1=Nc2ccccc2N=C(NC(=O)c2ccccc2)C1c1ccccc1 (stereo not given)	94	79	-11	100
Cc1cc2c(cc1S(=O)(=O)N1CCCC(C(=O)N3CCc4ccccc43)C1)OCC(=O)N2 (stereo not given)	.	.	-4	105
CCc1cc(C(=O)Nc2sc(C)c(CC)c2C#N)no1	106	87	-26	102
CCOC(=O)c1cc(-c2ccc(OC)c(S(=O)(=O)NCC3CCCO3)c2)on1 (stereo not given)	.	.	-25	98
CC1(C)Cc2c(ccc3ccccc23)C(=O)N1	80	88	-56	100
CCOc1ccc(N2CCCCn3c2nc2c3c(=O)[nH]c(=O)n2C)cc1	.	.	-5	100
CCn1c(Sc2nnnn2-c2ccccc2)nc2cc(S(=O)(=O)N3CCOCC3)ccc21	81	89	-11	.
CC(Sc1nc(-c2ccccc2)cc(C(F)(F)F)n1)C(=O)O (stereo not given)	90	82	.	103
CC1CCCCN1C(=O)Nc1ccc2c(c1)N(C)C(=O)c1ccccc1S2 (stereo not given)	.	.	-5	109
COc1ccc(OC)c(NC(=O)c2ccc(N3C(=O)CCC3=O)cc2)c1	82	95	-15	.
CCOC(=O)/C(=C(/C)N)C1CC(=O)N(c2ccc(C(=O)OCC)cc2)C1=O (stereo not given)	91	89	-4	102
N#CC(C#N)=Cc1cn(-c2ccccc2)nc1-c1ccc2c(c1)OCCO2	87	92	-5	.
COc1ccc(CNC(=O)C2(C)Cn3nc(C)cc3C(=O)N2c2ccc(OC)cc2)cc1 (stereo not given)	.	.	4	96
CCC1c2cccn2-c2sc3c(c2CN1C(=O)Nc1cccc2c1CCCC2)CCN(C)C3 (stereo not given)	.	.	-12	110
COc1ccc2[nH]c(C(=O)NC3CCN(Cc4ccccc4)CC3)cc2c1	122	96	-18	104
CCCc1cc(CN)on1	100	97	-6	96
O=C(NC1CC1)c1ccc(CSCc2cccc(F)c2)o1	88	78	.	107
CCOC(=O)c1c(-c2ccccc2)oc2c(-c3ccccc3)cc(O)cc12	118	80	.	104
CCCCCOC(=O)CSc1nc2sc3c(c2c(=O)n1Cc1ccccc1)CC(C)(C)OC3	91	93	-18	104
CC1(C)CC(NCc2ccco2)CC(C)(C)N1	85	86	-6	.
COc1ccc(CNCC(O)COCc2cccs2)cc1 (stereo not given)	94	96	-2	.
O=C(O)c1ccccc1CSc1nc2cc(Cl)ccc2o1	105	101	7	.

# (continued)
structure	Sa growth inh	Sa growth inh second temp	HCMV NEC inh	GIV-Gai inh
COc1ccc(N2CCN(c3oc(/C=C/c4ccc(F)cc4)nc3C#N)CC2)cc1	106	90	-37	97
COc1nc(NCC(C)C)nc(Oc2ccc(OCc3ccccc3)nn2)n1	93	99	4	105
Cc1cc(C)n(-c2ccc(C(=O)C(C#N)c3nc4ccccc4n3C)cc2)n1 (stereo not given)	103	95	-6	.
O=C(On1c(-c2ccccc2)cc2ccccc21)c1cccnc1Cl	112	87	-24	.
FC(F)(F)c1ccc(-c2nc(-c3cc(-c4ccccc4)no3)cs2)cc1	109	98	-4	99
CCCc1nn2cc(-c3ccccc3)nc2s1	88	86	-14	102
Cc1ccc(CNC(=O)CCN2N=C(c3ccccc3)CCC2=O)cc1	113	100	-15	104
CCCCOc1ccc(C2Nc3ccccc3NC3=C2C(=O)CC(C)(C)C3)cc1 (stereo not given)	.	.	4	92
CCN(c1cccc(C)c1)S(=O)(=O)c1ccc(-n2cccn2)cc1	90	83	.	106
CC(Nc1ccc(-c2nc(-c3cccnc3)no2)cc1[N+](=O)[O-])c1ccccc1 (stereo not given)	97	82	-25	103
O=C(/C=C/c1ccco1)NC(=S)NC1CCCCC1	79	49	-6	146
COc1ccc2c(c1)cc(C(=O)Nc1ccc(N3CCOCC3)c(Br)c1)n2C	.	.	-15	98
O=C1CCC(C(=O)NN2C(=O)c3cccc4cccc(c34)C2=O)=NN1	86	64	-93	.
O=C(Oc1ccccc1N1CCCCC1)c1ccco1	104	89	-16	97
CC1CSc2nc3sc4c(c3c(=O)n21)CCCC4 (stereo not given)	91	69	3	100
CSc1ccc(-c2nc3ccc(C)cn3c2NC2CCCCC2)cc1	102	91	.	99
NC(=NS(=O)(=O)c1ccccc1)c1ccccc1F	126	85	-32	.
COc1ccc(-c2csc(-c3cc4c([nH]c3=O)CC(c3ccccc3)CC4=O)n2)cc1 (stereo not given)	.	.	-26	144
O=C1NC2(CCN(C(=O)c3ncoc3-c3ccccc3)CC2)Oc2ccccc21	118	84	-45	106
C#CCSc1nc2c(c(=O)n1C1CCOC(C)(C)C1)C1(CCCCC1)Cc1ccccc1-2 (stereo not given)	.	.	-2	102
O=C(NCC1CCCO1)c1ccc2c(c1)N(Cc1ccccc1)C(=O)CS2=O (stereo not given)	.	.	19	102
COc1ccc2nc(-c3nc4ccccc4s3)sc2c1	93	83	-20	109
CC(=O)Nc1ccc(S(=O)(=O)NC2(C(F)(F)F)NC(=O)N(c3ccc(C)cc3)C2=O)cc1 (stereo not given)	98	87	0	100
Cc1cc(C(F)(F)F)nn1CC(=O)NCc1cccs1	107	86	0	.
Clc1ccccc1CSc1nc(NCC2CCCO2)c2ccccc2n1 (stereo not given)	118	83	.	101

# Arranged by length of the SMILES (descending): part of the list above
structure	Sa growth inh	Sa growth inh second temp	HCMV NEC inh	GIV-Gai inh
Cc1cc2c(cc1S(=O)(=O)N1CCCC(C(=O)N3CCc4ccccc43)C1)OCC(=O)N2 (stereo not given)	.	.	-4	105
Cc1cc(C)n(-c2ccc(C(=O)C(C#N)c3nc4ccccc4n3C)cc2)n1 (stereo not given)	103	95	-6	.
COc1ccc2c(c1)cc(C(=O)Nc1ccc(N3CCOCC3)c(Br)c1)n2C	.	.	-15	98
COc1nc(NCC(C)C)nc(Oc2ccc(OCc3ccccc3)nn2)n1	93	99	4	105
Clc1ccccc1CSc1nc(NCC2CCCO2)c2ccccc2n1 (stereo not given)	118	83	.	101
CCCc1cc(CN)on1	100	97	-6	96

# Additional structures follow:
# Second line of a record – Sa growth inh, Sa growth inh second temp, HCMV NEC inh, GIV-Gai inh
Cc1cc(C)nc(N2CCN(c3ncnc4c3cnn4-c3ccccc3)CC2)n1
  ., ., 4, 106
Cc1ccc(CN2CC34C=CC(O3)C(C(=O)NCCc3ccc(Cl)cc3)C4C2=O)cc1 (stereo not given)
  112, 76, ., 102
COc1ccc(OC)c(C2C(C(=O)OC3CCCC3)=C(C)NC3=C2C(=O)CC(c2ccc(OC)c(OC)c2)C3)c1 (stereo not given)
  ., ., -9, 98
CC(=O)N(Cc1ccccc1C)c1nc2ccccc2n(CC(=O)Nc2c(F)cccc2F)c1=O
  ., ., -39, 109
Cc1ccc(C(=O)Cn2nnc(-c3ccc(N)cc3)n2)cc1
  99, 88, -7, 101
CC1=CC(C)(C)N(C(=O)c2ccc(F)cc2)c2cc3c(cc21)OCO3
  86, 68, ., 100
CC(C)S(=O)(=O)c1nc2ccccc2n1CC(=O)N1CCCc2ccccc21
  116, 95, 11, 106
CSc1ccc(CCNS(=O)(=O)c2cc(-c3cc(C)no3)ccc2C)cc1
  116, 88, ., 105
COCCNC(=O)CSc1nc2ccccc2nc1Cc1ccc(C)cc1
  96, 89, ., 102
Cc1ccc(S(=O)(=O)N(Cc2c(F)cccc2Cl)c2nc3nc(C)cc(C)n3n2)cc1
  ., ., 0, 101
CCCS(=O)(=O)Cc1nnc(-c2ccc(C(C)(C)C)cc2)o1
  104, 110, -2, 103
CCC(=O)N1c2ccccc2CC1C(=O)NCCCN1CCN(c2cc(C)ccc2C)CC1 (stereo not given)
  116, 100, ., 106
CCOc1cccc(N2C(=O)/C(=C/c3cn(CC(=O)N4CCOCC4)c4ccccc34)C(=O)NC2=S)c1
  ., ., -3, 82*
O=C(CN1C(=O)C2C3C=CC(C3)C2C1=O)Nc1nc(SCc2ccc(Cl)cc2)n[nH]1 (stereo not given)
  94, 92, -2, .
Oc1ccc(O)c(CN2CCCCCC2)c1
  116, 65, -35, .
c1ccc(CNCc2cn(Cc3ccccc3)c3ccccc23)cc1
  88, 46, -7, 104
CCN(CC)CC(O)COc1ccc(C(C)(C)CC)cc1C(C)(C)CC (stereo not given)
  -0.7*, -0.7*, ., 108
COC(=O)c1sccc1NC(=O)N1CCCC1c1ccccc1Cl (stereo not given)
  ., ., 5, 104
COc1cccc(NCc2nnc(SCC(=O)N3CCNC3=O)n2C2CCCCC2)c1
  102, 86, -20, .
Cc1ccc(C2=N/C(=C\c3c(C)nn(-c4ccccc4)c3N3CCCC3)C(=O)O2)s1
  82, 89, -21, .
COc1ccc(OC)c(CNCc2c(C(=O)O)c(C)n(-c3ccccc3)c2C)c1
  ., ., -16, 145
C=CCN1C(=O)/C(=C\C=C2/CCCN2C)SC1=S
  102, 102, -78, -61*
Cc1ccccc1N1C(=O)N(Cc2ccc(C(C)(C)C)cc2)c2ccccc2S1(=O)=O
  ., ., -12, 98
COc1ccccc1Oc1coc2cc(OCC(N)=O)ccc2c1=O
  87, 84, -2, 107
COc1ccc(OCCn2c(-c3ccc(Cl)cc3)nc3ccccc3c2=O)cc1
  92, 84, ., 99
CCOC(=O)c1c(N=CN(C)C)c(C#N)c2n1CCC2
  93, 84, ., 103
COc1ccc(NCC(=O)N/N=C2\CCc3ccccc32)cc1
  88, 91, -8, .
O=C(Cn1cc2c(n1)CCCC2)Nc1ccc2c(c1)OCCO2
  97, 86, -1, 107
CCN(CC)C(=O)CCc1nc(-c2cc3ccccc3[nH]c2=O)no1
  ., ., -69, 104
Cc1nc(CCNC(=O)c2ccccc2)cs1
  124, 90, ., 101
CCCCOc1ccc(C(=O)NCCS(=O)(=O)N2CCN(c3ccccc3OC)CC2)cc1
  94, 91, ., 105
COc1ccc(-c2ccnc(SCC(=O)N3CCOCC3)n2)cc1
  92, 81, -30, 102
N=C1/C(=C2\Nc3ccccc3S2)CC(=O)N1C1CC1
  84, 38, -82, .

# Source: PubChem (ICCB-Longwood Screening Facility, Harvard Medical School)
